Sa growth 42C: blocks Staphylococcus aureus growth. relative growth, % (no concentration beside the values). AID 720641. S. aureus RN4220 growth, OD600, 20 h, 42 °C; active compounds read low. 170,000 tested, 0.53% active;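 active means growth at 42 °C up to 50% and 20 or more points under that at 30 °C, or under 10% at both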;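 further: 300 nL library stock went into each well; scaled to the means of positive and negative controls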
HCMV UL50-53 inh: disrupts HCMV UL50-UL53 complex binding; HTRF UL50-UL53 interaction, normalized percent inhibition; inhibition, % (concentration not given with the values); AID 1918969; 190,000 tested, 0.15% active;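 active means both replicates at 50% or more, plus weaker picks with an unusually low signal ratio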;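 further: stock transfer was 100 nL into about 20 µL; 0% = negative control wells and 100% = wells with untagged competitor protein; inactives centre near -12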
GIV-Gai inh: blocks GIV peptide binding to rat Galpha-i3; percent of control (FP), % (concentration not given with the values); 210,000 tested, 0.42% active; AID 1224905; Galpha-i3/FITC-GIV peptide fluorescence polarization, 90 min; active compounds read low; scaled: aluminum fluoride 0%, vehicle 100%;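 active means replicate mean at 85% of control or lower, very high polarization wells dropped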;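 further: wells of about 15 µL received 100 nL stock; the first replicate is given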
Target sequence (P08753 whole entry, looked up): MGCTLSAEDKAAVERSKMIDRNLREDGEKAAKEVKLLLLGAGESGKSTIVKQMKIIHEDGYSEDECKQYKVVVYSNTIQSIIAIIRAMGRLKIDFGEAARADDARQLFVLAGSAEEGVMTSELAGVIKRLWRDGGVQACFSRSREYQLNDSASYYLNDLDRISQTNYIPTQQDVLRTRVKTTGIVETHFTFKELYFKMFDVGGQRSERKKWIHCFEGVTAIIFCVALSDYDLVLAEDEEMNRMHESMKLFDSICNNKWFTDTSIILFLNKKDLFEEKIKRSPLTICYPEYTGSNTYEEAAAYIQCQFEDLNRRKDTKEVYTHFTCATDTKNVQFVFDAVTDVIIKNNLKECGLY
Sa growth 42C second temp: further read-out of Sa growth 42C, marked with its call; relative growth, %; measured here: growth at 30 °C;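 optical density after 20 h as mean of two plates; 100% = untreated growth and lower means inhibition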
An asterisk follows results filed as active; / = no result given; & = joins results of further samples.

SMILES | Sa growth 42C | Sa growth 42C second temp | HCMV UL50-53 inh | GIV-Gai inh
Cn1c(/C(C#N)=C(\O)c2ccccc2)nc2ccccc21 | 87 | 85 | -4 | 99
C=CCn1c(SCC)nnc1-c1cccc(C)c1 | 101 | 98 | -14 | /
Cc1c(C(=O)OCC2CCCCC2)[nH]c2c1C(=O)CC(c1ccc(F)cc1)C2 (stereo not given) | 97 | 104 | -11 | 106
O=c1cc(CN2CCN(c3ncccn3)CC2)nc2sccn12 | / | / | -18 | 100
Brc1ccc(Cn2nnc(-c3ccc4c(c3)OCO4)n2)cc1 | 98 | 91 | -8 | 101
O=CNC1CCCc2c1[nH]c1ccc(F)cc21 (stereo not given) | 116 | 101 | 7 | /
Cc1ccc(N2C(=O)[C@@H]3CSC(c4ccc(F)cc4)N3C2=O)cc1 (stereo not given in full) | 98 | 87 | -10 | 94
Cc1ccc(CNC(=O)CSc2c(C)cnc3c2c(=O)n(C)c(=O)n3C)cc1 | 160 | 87 | / | 103
O=C(O)c1ccc(-c2ccccc2)[nH]1 | 100 | 86 | -17 | /
CC(=O)Oc1c(O)ccc2c(C)cc(=O)oc12 | 89 | 92 | -20 | 103
CCOc1ccccc1NC(=O)CSc1nnc(CC)c(CC)n1 | 113 | 89 | / | 106
CCOc1ccc(NC(=O)C2CCCN(c3ccc4cc(S(=O)(=O)N5CCCC5)ccc4n3)C2)cc1 (stereo not given) | / | / | -36 | 104
CCc1nnc(-c2cn(CC(=O)Nc3ccc(Br)cc3)c3ccccc23)o1 | / | / | -17 | 99
Cc1c(CN2CCN(c3ccccn3)CC2)sc2ccccc12 | 116 | 87 | 0 | 103
COc1ccc(CNC(=O)CCCn2c(SCC(N)=O)nc3cc4c(cc3c2=O)OCO4)cc1 | 86 | 98 | / | 108
Cc1cc(C)n2nc(N(Cc3c(F)cccc3Cl)S(=O)(=O)c3ccccc3)nc2n1 | / | / | -26 | 104
Cc1ccc(Cl)cc1Nc1nc2ccccc2n2c(C)nnc12 | 120 | 94 | -10 | 105
O=C(COc1ccc(Br)cc1)Nc1cccc(-c2nc3ccccc3o2)c1 | 99 | 103 | -7 | 102
CC(=O)N1CCOc2cc(S(=O)(=O)NCc3ccc(C)cc3)c(C)cc21 | 107 | 94 | / | 100
Cc1ccc(S(=O)(=O)NC(C(=O)NC2CCCCC2)C(C)C)cc1 (stereo not given) | 94 | 103 | 27 | /
Cc1nc2cc(-c3ccccc3)nn2c(C)c1CCC(=O)Nc1cccnc1 | / | / | -5 | 98
CC1CCCCC1NC(=O)C1CCN(Cc2cnn(-c3ccccc3)c2-n2cccc2)CC1 (stereo not given) | 109 | 81 | / | 96
Cc1noc2c1C(c1cccc(Br)c1)C1=C(CC(c3ccc(O)cc3)CC1=O)N2 (stereo not given) | / | / | -4 | 105
Cc1ccc(Sc2ncccc2NC(=O)c2ccco2)cc1 | 107 | 76 | -12 | 104
CCOc1ccc(S(=O)(=O)Nc2ccc(-c3ccc(OC)nn3)cc2)cc1 | 100 | 89 | / | 104

Sorted by value in Sa growth 42C second temp (highest first): some entries from above
SMILES,Sa growth 42C,Sa growth 42C second temp,GIV-Gai inh
Cc1c(C(=O)OCC2CCCCC2)[nH]c2c1C(=O)CC(c1ccc(F)cc1)C2 (stereo not given),97,104,106
CC(=O)N1CCOc2cc(S(=O)(=O)NCc3ccc(C)cc3)c(C)cc21,107,94,100
CC1CCCCC1NC(=O)C1CCN(Cc2cnn(-c3ccccc3)c2-n2cccc2)CC1 (stereo not given),109,81,96

Next entries.
SMILES | Sa growth 42C | Sa growth 42C second temp | HCMV UL50-53 inh | GIV-Gai inh
CC(C)C/C(O)=C/c1nc2cc(Cl)ccc2oc1=O | 108 | 87 | / | 101
COc1ccc(NC(=O)/C=C/C(=O)O)c(OC)c1 | 89 | 104 | -2 | 102
CC(=O)N(c1ccccc1)c1nc(COC(=O)c2cc(C)oc2C)cs1 | 93 | 91 | -15 | /
Cc1cc(C)n(NC(=S)NC2CCCC2)c(=O)c1C#N | 96 | 88 | -25 | 96
Cc1ccc2c(c1)-c1onc(C(=O)N(CC(C)C)CC(C)C)c1CO2 | 89 | 84 | / | 102
CNCc1ccc(Cl)c(Cl)c1 | 92 | 94 | -15 | /
CCc1cc2c(=O)n(Cc3ccco3)c(SC(C)C(=O)N3CCc4ccccc43)nc2s1 (stereo not given) | 62 | 88 | -9 | /
Cc1cccc(N=C2C(=O)N(c3ccccc3)c3ccccc32)c1 | / | / | -11 | 97
COc1cc(COC(=O)c2ccc3c(c2)S(=O)(=O)N=C2CCCCCN23)cc(OC)c1OC | 97 | 94 | -6 | /
O=C(O)[C@H]1NCCC[C@H]1C(=O)O | / | / | -7 | 104
COC(=O)Cn1c(O)c(N=NC(=O)C2C(=O)NCC2c2ccccc2)c2ccccc21 (stereo not given) | 82 | 72 | -58 | 100
COc1ccc(NC(=O)C2=C(C)Nc3ncnn3C2c2cccn2C)cc1 (stereo not given) | 96 | 93 | / | 100
O=C(c1cc2ccccc2oc1=O)N1CCSC1c1ccccc1 (stereo not given) | 107 | 93 | -7 | /
Cc1cc(C)cc(NC(=O)CSc2nc3c([nH]c4ccccc43)c(=O)n2-c2ccc(F)cc2)c1 | 102 | 100 | / | 108
CSc1ncc(-c2ccc(Br)cc2)[nH]1 | 112 | 66 | -19 | 95
NC(=O)c1ccsc1NC(=O)CSc1ccc(S(=O)(=O)N2CCCCC2)cn1 | 87 | 83 | -17 | /
CCSc1nn(CC(=O)Nc2ccccc2Cl)c(N)c1S(=O)(=O)c1ccccc1 | / | / | -21 | 101
CC1CCCN(C(=O)CCS(=O)(=O)c2ccc3c(c2)CC(C)N3C(=O)C2CC2)C1 (stereo not given) | / | / | -5 | 107
CCCCc1c(C)nc(N2CCCC2)[nH]c1=O | 98 | 82 | -5 | 101
S=c1[nH]nc(-c2cccnc2)n1Cc1ccccc1 | 96 | 82 | -22 | 97
CC(=O)Nc1cccc(Oc2nnnn2-c2ccccc2)c1 | 113 | 88 | -2 | /
CCN1CCCC1CNC(=O)c1ccc2c(c1)sc1nc(-c3ccc(C)cc3)cn12 (stereo not given) | 105 | 59 | / | 104
O=C(COC(=O)c1ccncc1)Nc1cccc2ccccc12 | 104 | 94 | 3 | /
CCOC(=O)c1c(NC(=O)/C=C/c2ccc(OCC)c(OC)c2)sc2c1CCC2 | 110 | 95 | -12 | 110
COCC(=O)n1nc(-c2ccco2)nc1NCc1ccccc1Cl | 108 | 87 | -8 | 101
The listing continues.
SMILES | Sa growth 42C | Sa growth 42C second temp | HCMV UL50-53 inh | GIV-Gai inh
CC(C)CCNC(=O)Nc1cn(C)c(=O)c2ccccc12 | 89 | 83 | -21 | 95
Cc1nc(-n2nc(C)c(CCC(C)C)c2C)sc1C(=O)Nc1cccc(Cl)c1C | 95 | 88 | -11 | 99
CCc1ccc(NC(=O)N2CCN(Cc3cc(=O)n4nc(-c5ccccc5OC)sc4n3)CC2)cc1 | 82 | 86 | / | 102
COc1ccc(-c2csc(-c3c(N)c(C(=O)c4ccccc4)n4ccccc34)n2)cc1 | 99 | 93 | 5 | 108
CCC(=O)N/C(N)=N\c1nc(C)c2cc(OC)ccc2n1 | 96 | 83 | -11 | 111
COc1ccccc1N(CCCN1C(=O)c2cccc3cccc(c23)C1=O)C(=O)c1cc(OC)c(OC)c(OC)c1 | / | / | -6 | 102
O=C(Nc1cccc(C2=NCCN2)c1)Nc1cccc(C2=NCCN2)c1 | 67 | 67 | 1 | /
CCOC(=O)c1c(C(=O)OCC)c(C)n(N2C(=O)CSC2=S)c1C | 97 | 92 | -2 | /
CC1CCN(S(=O)(=O)C2CCS(=O)(=O)C2)CC1 (stereo not given) | / | / | -15 | 98
COc1ccc(C)cc1NC(=O)CN1CCCN(S(=O)(=O)c2ccc(Br)cc2)CC1 | 106 | 93 | 2 | 104
CCOC(=O)C1=C(c2ccccc2)OC(N)=C(C#N)C1C1CCCCC1 (stereo not given) | 91 | 87 | -23 | 99
COCCCN1C(=O)CSc2c(c(C)nn2-c2ccccc2)C1C(=O)NCc1ccccc1OC (stereo not given) | / | / | -20 | 106
Cn1c(=O)c2sccc2n2c(SCc3ccc(F)cc3)nnc12 | / | / | -16 | 102
Cc1ccccc1NC(=O)CN1C(=O)C2(SCC(=O)N2c2ccc(F)cc2)c2ccccc21 (stereo not given) | 106 | 88 | / | 103
CC1=C(C(=O)OC2CCCC2C)C(c2ccccc2OCc2ccccc2)NC(=O)N1 (stereo not given) | / | / | -8 | 106
Cc1ccc(NC(=O)Cn2cc(S(=O)(=O)N3CCCC3)c(S(=O)(=O)N3CCCC3)c2)cc1F | 119 | 100 | / | 112
O=C(CSc1nc2ccccc2c(=O)n1CCc1ccccc1)c1ccc(Cl)cc1 | 99 | 87 | / | 98
c1ccc(OCCNc2nnnn2-c2ccccc2)cc1 | 92 | 92 | -4 | /
COc1ccc(-n2nc3c(c2NC(=O)c2ccc(S(=O)(=O)N4CCCC4)cc2)CSC3)cc1 | / | / | 58* | 104
O=C(OCC(=O)c1c[nH]c2ccccc12)c1ccc2c(=O)n3c(nc2c1)CCCCC3 | 93 | 76 | -24 | /
Cc1cccc2c1-c1sc(C(=O)NCCN(C)C3CCCCC3)cc1CO2 | 86 | 54 | / | 100
Cc1ccc(N(Cc2ccco2)C(=O)c2cccnc2)cc1 | 125 | 83 | -19 | /
Cc1[nH]c(-c2ccc(F)cc2)cc1C(=O)N1CC=C(c2ccccc2)CC1 | / | / | -6 | 108
CCOC(=O)Cc1csc(NC(=S)NC(=O)c2sc3ccccc3c2Cl)n1 | / | / | -14 | 97
O=C1c2cccnc2C(=O)N1Cc1ccc(S(=O)(=O)N2CCCCC2)cc1 | 99 | 96 | / | 99

Results in HCMV UL50-53 inh and Sa growth 42C second temp, for six of the compounds above:
canonical_smiles | HCMV UL50-53 inh | Sa growth 42C second temp
CCOC(=O)c1c(C(=O)OCC)c(C)n(N2C(=O)CSC2=S)c1C | -2 | 92
CC1CCN(S(=O)(=O)C2CCS(=O)(=O)C2)CC1 (stereo not given) | -15 | /
COc1ccc(C)cc1NC(=O)CN1CCCN(S(=O)(=O)c2ccc(Br)cc2)CC1 | 2 | 93
CCOC(=O)C1=C(c2ccccc2)OC(N)=C(C#N)C1C1CCCCC1 (stereo not given) | -23 | 87
COCCCN1C(=O)CSc2c(c(C)nn2-c2ccccc2)C1C(=O)NCc1ccccc1OC (stereo not given) | -20 | /
Cn1c(=O)c2sccc2n2c(SCc3ccc(F)cc3)nnc12 | -16 | /

Next entries:
SMILES | Sa growth 42C | Sa growth 42C second temp | HCMV UL50-53 inh | GIV-Gai inh
CCCc1nnc(NC(=O)c2cc(=O)c3cc(C)c(C)cc3o2)s1 | 97 | 86 | -43 | 100
CCOc1ccc(-c2nc(CSCC(=O)N3CCOCC3)c(C)o2)cc1 | 127 | 85 | / | 105
CCOC(=O)c1c(C)n(-c2ccc(C)cc2)c2ccc(OCC(O)CN3CCN(C)CC3)cc12 (stereo not given) | 121 | 22 | -14 | 104&101
NC(=O)COC(=O)COc1ccc(C(=O)c2ccccc2)cc1 | 101 | 96 | 7 | /
COc1ccc(NC(=O)C(=O)NCc2ccco2)cc1 | 101 | 92 | -21 | 105
CC1CCN(S(=O)(=O)c2nnc(NC(=O)c3cccc(Br)c3)s2)CC1 | 106 | 79 | -16 | 106
N#Cc1ccc(-c2cccs2)nc1SCCOc1ccccc1 | 93 | 84 | -16 | /
CC(C)c1cc(-c2nnc3sc(-c4ccncc4)nn23)n[nH]1 | / | / | -23 | 85*
O=C(OCc1csc(-c2ccccc2)n1)C1CC(=O)N(Cc2ccco2)C1 (stereo not given) | 90 | 86 | -21 | /
Cn1c(SCC(=O)Nc2ccccc2Oc2ccccc2)nc2ccccc2c1=O | 79 | 87 | -4 | 100
Cn1c(=O)c2nc(SCC(=O)Nc3ccc(OC(F)(F)F)cc3)n(C)c2n(C)c1=O | 137 | 89 | / | 99
O=c1[nH]c(=O)n(-c2ccccc2)c(O)c1C=Nc1ccc(S(=O)(=O)N2CCCCC2)cc1 | 117 | 102 | -8 | 106
COc1ccc(-c2nc3ccccc3c(=O)n2NC(=O)/C=C/c2ccccc2Cl)cc1OC | / | / | -13 | 98
CCCC(=O)N1CCC(c2c[nH]c3ccccc23)(c2c[nH]c3ccccc23)CC1 | 115 | 88 | / | 96
CC1CCN(Cn2nc(-c3ccc4c(c3)OCO4)oc2=S)CC1 | 42* | 79* | -23 | /
C=CCC(NCc1ccccc1)c1ccccc1 (stereo not given) | 100 | 81 | -14 | 104
FC(F)(F)c1ccc(N2CCN(Cc3cc(Cl)cc4c3OCOC4)CC2)nc1 | 93 | 94 | -15 | 109
O=c1cc(-c2ccccc2)cc(-c2ccccc2)n1O | 79 | 85 | -9 | 103
CCOC(=O)c1cc(C)n(-c2ccc(C(=O)NC3CCCCCC3)cc2)c1C | 87 | 91 | / | 99
CCOC(=O)C1=C(C)N(C)C(=S)N(C)C1c1ccccc1C(F)(F)F (stereo not given) | 103 | 85 | -10 | /
O=C(NCc1sccc1COc1ccc(Cl)cc1)Nc1ccccc1F | 100 | 95 | -34 | 107
Cc1cccc(C)c1-n1c(-c2cccc(S(=O)(=O)N(C)C)c2)nn(CN2CCOCC2)c1=S | 101 | 91 | -9 | /

As a short view, part of the list above:
SMILES | Sa growth 42C | Sa growth 42C second temp | HCMV UL50-53 inh | GIV-Gai inh
Cn1c(/C(C#N)=C(\O)c2ccccc2)nc2ccccc21 | 87 | 85 | -4 | 99
C=CCn1c(SCC)nnc1-c1cccc(C)c1 | 101 | 98 | -14 | /
Cc1c(C(=O)OCC2CCCCC2)[nH]c2c1C(=O)CC(c1ccc(F)cc1)C2 (stereo not given) | 97 | 104 | -11 | 106

Screening results from PubChem BioAssay.
